PV pol inh – poliovirus RNA polymerase inhibition | P03300 | poliovirus polymerase elongation, fluorescence polarization; active compounds read low | actives 0.66% (n = 150,000) | % elongation, % (compound at 16.7 µg/mL) | AID 588519; in the data active = % elongation below about 90%; also: some results filed as inactive read as strong as hits
Target sequence (P03300 1749-2209 limits assumed): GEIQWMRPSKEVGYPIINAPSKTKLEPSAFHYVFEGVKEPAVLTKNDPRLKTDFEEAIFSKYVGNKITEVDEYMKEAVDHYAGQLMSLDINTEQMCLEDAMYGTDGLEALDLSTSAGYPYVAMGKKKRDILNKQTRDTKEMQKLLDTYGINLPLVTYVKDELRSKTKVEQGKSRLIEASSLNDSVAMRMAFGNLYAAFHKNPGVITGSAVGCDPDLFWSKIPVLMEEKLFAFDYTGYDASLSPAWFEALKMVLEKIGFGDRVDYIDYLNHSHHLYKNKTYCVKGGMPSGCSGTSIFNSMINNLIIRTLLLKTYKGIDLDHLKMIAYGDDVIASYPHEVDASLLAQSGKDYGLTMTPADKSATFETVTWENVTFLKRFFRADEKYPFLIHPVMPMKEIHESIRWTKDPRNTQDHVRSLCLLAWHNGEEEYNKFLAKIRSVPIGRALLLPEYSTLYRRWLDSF
PV pol inh intensity – recorded beside PV pol inh, whose call it bears; % elongation; measured here: total intensity read-out; formula for this scale not given here;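 total fluorescence in place of polarization; lower means less elongation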
Active calls of the source: *. Some of the compounds tested (hit frequency here may not be typical).

Preview:
SMILES	PV pol inh	PV pol inh intensity
CCOc1ccccc1CNC(=O)c1ccc2nc(N3CCC(C)CC3)sc2c1	111	113
Cc1[nH]n2c(=O)cc(-c3ccccc3Cl)nc2c1-c1ccccc1	105	112
COc1ccc(S(=O)(=O)c2cnc3cc(OC)c(OC)cc3c2N2CCCC(C)C2)cc1 (stereo not given)	105	105
COc1ccc(Cl)cc1NC(=O)c1c(NCc2ccc(C)o2)sc2c1CCC(C)C2 (stereo not given)	97	97
Cc1nn2c(C)c(C(=O)NCc3cccc(Br)c3)cnc2c1-c1ccccc1	104	113
COCCNc1nc2c(c(=O)n(C)c(=O)n2C)n1Cc1c(F)cccc1Cl	111	115
CC(C)c1nn2c(=O)cc(COC(=O)c3ccc(NC(=O)c4cccs4)cc3)nc2s1	113	114

All compounds of this part, from the start:
SMILES	PV pol inh	PV pol inh intensity
CCOc1ccccc1CNC(=O)c1ccc2nc(N3CCC(C)CC3)sc2c1	111	113
Cc1[nH]n2c(=O)cc(-c3ccccc3Cl)nc2c1-c1ccccc1	105	112
COc1ccc(S(=O)(=O)c2cnc3cc(OC)c(OC)cc3c2N2CCCC(C)C2)cc1 (stereo not given)	105	105
COc1ccc(Cl)cc1NC(=O)c1c(NCc2ccc(C)o2)sc2c1CCC(C)C2 (stereo not given)	97	97
Cc1nn2c(C)c(C(=O)NCc3cccc(Br)c3)cnc2c1-c1ccccc1	104	113
COCCNc1nc2c(c(=O)n(C)c(=O)n2C)n1Cc1c(F)cccc1Cl	111	115
CC(C)c1nn2c(=O)cc(COC(=O)c3ccc(NC(=O)c4cccs4)cc3)nc2s1	113	114
CC(NC(=O)CCCC1=NS(=O)(=O)c2ccccc2N1)c1ccccc1 (stereo not given)	112	108
Cc1cccc(NC(=O)NCCn2c(=O)oc3ccc(C)cc32)c1	110	114
O=C(NCCc1ccccc1)c1ccc(CSc2nc3cccnc3n2Cc2ccc(F)cc2)cc1	105	103
O=C(Nc1ccc(Br)cc1F)N1CCC(CN2CCCC2)CC1	115	116
CCOc1ccc(NC(=O)Cn2c(=O)n(Cc3nc(-c4ccccc4)no3)c(=O)c3cc4c(cc32)OCO4)cc1	108	113
COc1ccc(CNS(=O)(=O)c2ccc3c(c2)NC(=O)C(C)C(=O)N3)cc1 (stereo not given)	105	107
COc1ccc2c(C)cc(SCC(=O)Nc3nsc(-c4ccc(C(C)(C)C)cc4)n3)nc2c1	100	98
COc1cc(CNc2ccc3[nH]c(=O)[nH]c3c2)ccc1OCc1ccc(F)cc1Cl	104	111
COc1ccc(N2CCN(C3=NS(=O)(=O)C(c4cccc(Br)c4)=C3C)CC2)cc1	109	110
CCN(CC)S(=O)(=O)c1nnc(NC(=O)COc2ccccc2F)s1	106	100
COC(=O)c1cc(S(=O)(=O)NCC2CCN(Cc3ccc(C)cc3)CC2)c[nH]1	102	99
Cn1cc(-c2cc3n(n2)CCC(=O)N3CCCC(=O)NCc2ccccc2)c2ccccc21	106	108
Cc1ccc(-c2onc(C)c2C)cc1S(=O)(=O)N1CCC(C)CC1	104	107
Cc1ccc(NC(=O)CCc2c(C)nc3c(-c4ccccc4)c(C)nn3c2C)c(C)c1	112	113
CC(C)(C)c1ccc(C(=O)NC(Cc2c[nH]c3ccccc23)C(=O)OCC(=O)c2ccccc2)cc1 (stereo not given)	106	107
COc1ccc(OC)c2sc(N3CCN(C(=O)CCS(=O)(=O)c4ccc(F)cc4)CC3)nc12	110	113
COc1ccc(NS(=O)(=O)c2ccc3[nH]c4c(c3c2)CCCCCC4)cc1	113	118
CCOc1ccc(Nc2c(S(=O)(=O)c3ccc(C)cc3)cnc3ccc(OC)cc23)cc1	107	111
CCC1CN(C(=O)N2CCC(C(=O)NCCN(C)C)CC2)c2ccccc2O1 (stereo not given)	105	105
CCc1sc(Nc2ccc(C)cc2Br)nc1-c1cc2cccc(OC)c2oc1=O	109	113
COc1ccccc1-c1cc(C(=O)Nc2ccccc2C(F)(F)F)no1	108	111
Cc1cc2c(cc1C)-n1c(-c3ccccc3)c3c(=O)n(C)c(=O)n(C)c3c1C(c1ccco1)N2 (stereo not given)	98	104
CCc1cccc(-n2nnc(-c3nsc(NC(=O)c4cccs4)n3)c2C)c1	111	114
Cc1ccc2oc(C(=O)Nc3ccc(S(=O)(=O)Nc4nccc(C)n4)cc3)cc(=O)c2c1	106	110
COCC(=O)N1c2nc(-c3ccco3)nn2C2(CCCCC2)[C@@H]2CCCC[C@@H]21	106	111
COc1cccc(N2C(=O)CSC23C(=O)N(CC(=O)NCc2ccc(C)cc2)c2ccccc23)c1 (stereo not given)	102	112
COC(=O)c1ccccc1NC(=O)c1ccc2c(c1)CCN2S(=O)(=O)c1ccc(Cl)cc1	108	112
CCOc1ccc(CCNC(=O)CCn2c(=O)c3cccn3c3cccnc32)cc1	102	106
CCc1ccccc1NC(=O)c1ccc2c(c1)CCN2S(C)(=O)=O	101	107
COC(=O)c1cnc(N2CCN(c3ccccc3F)CC2)c2ccccc12	112	113
Cc1ccccc1CN1C(=O)c2ccccc2Sc2ccc(C(=O)NC3CCCCC3)cc21	107	110
CC(NC(=O)C1CCN(S(=O)(=O)c2ccc3nc4c(c(C(=O)O)c3c2)CCCC4)CC1)c1ccccc1 (stereo not given)	101	100
CCc1nn(CC(=O)NCc2ccccc2Cl)c(=O)c2cccn12	107	114
CCOC(=O)c1c(C)c(-c2ccccc2)n(CC(=O)NC2CCCCC2)c1C	110	106
COc1ccc(-c2nc(CNC(=O)NC3CCCCC3)c(C)o2)c(OC)c1	109	110
CC(C)c1cc(-c2nc(-c3ccc(Br)cc3)no2)n[nH]1	106	104
CCCCCNC(=O)C(=O)NCC(c1ccc2c(c1)OCO2)N1CCOCC1 (stereo not given)	103	108
CCOC(=O)c1ccc(N2CC3=C(C2=O)C(c2ccc(OC)cc2)NC(=O)N3C)cc1 (stereo not given)	100	102
COc1ccc(CCn2c3c(c(=O)[nH]c2=O)C(NC(=O)c2ccc(Cl)cc2)(C(F)(F)F)C(=O)N3)cc1OC (stereo not given)	104	108
CC(C)Cc1nn2c(=O)cc(COC(=O)c3ccc(NC(=O)c4cccs4)cc3)nc2s1	103	99
O=C(Nc1ccc(S(=O)(=O)N2CCC(c3nc4ccccc4s3)CC2)cc1)c1ccccc1F	108	111
COc1cc(C(=O)Nc2c(C(=O)Nc3ccccc3F)oc3ccccc23)cc(OC)c1OC	100	102
O=C(Nc1onc2c1CCCC2)c1ccc(Cl)cc1	109	115
CCn1cc(S(=O)(=O)c2cccc(C)c2)c(=O)c2cc(F)c(N3CCCC(C)C3)cc21 (stereo not given)	104	105
Cc1cccc2nc(Cn3c(=O)n(-c4ccccc4)c(=O)c4c5c(sc43)CCC5)cc(=O)n12	109	107
Cc1cc(C)n(-c2nc3ccccc3nc2N2CCN(c3cccc(C(F)(F)F)c3)CC2)n1	107	112
COC(=O)c1ccc([C@@H]2Nc3c(cccc3C(F)(F)F)[C@@H]3C=CC[C@@H]32)cc1	112	111
COc1ccc(-c2cn3c(n2)sc2cc(C(=O)NCCc4ccc(OC)cc4OC)ccc23)cc1	109	112
Cc1ccc(-n2c(-c3ccco3)nc3c(cnn3-c3ccc(C)cc3)c2=O)cc1	106	105
Cc1ccc(-c2nnc(Nc3cccc(Cl)c3)c3ccccc23)cc1S(=O)(=O)N1CCN(C)CC1	108	112
CCc1ccc(NC(=O)Cn2c(=O)n(Cc3nc(-c4ccccc4)no3)c(=O)c3cc4c(cc32)OCO4)cc1	110	114
O=C(Nc1sc2c(c1C(=O)NCC1CCCO1)CCC2)c1cc(=O)c2ccccc2o1 (stereo not given)	112	114
Cc1cc(C(F)F)n2nc(C(=O)Nc3c(C)cccc3C)nc2n1	105	107
(cont.)
SMILES	PV pol inh	PV pol inh intensity
O=C(Cn1c(=O)n(Cc2ccco2)c(=O)c2sc3ccccc3c21)Nc1ccc(F)cc1F	104	109
COc1ccc(C2C(C(=O)Nc3cccnc3)=C(C)Nc3nc(-c4ccc(OC)c(OC)c4)nn32)cc1 (stereo not given)	108	105
O=C(Cn1ccn(-c2ccc(F)c(F)c2)c(=O)c1=O)Nc1ccccc1F	111	115
C[C@H](NC(=O)OC(C)(C)C)c1nnc(SCc2c(F)cccc2Cl)o1	107	109
CCOc1ccc(CNC(=O)C2CCN(S(=O)(=O)N3CCCCC3)CC2)cc1	114	109
COCCCNc1nc2c(c(=O)[nH]c(=O)n2C)n1CC(O)COc1ccc(Cl)cc1 (stereo not given)	106	106
CCOc1ccc2nc(N3CCCC(C(=O)NCc4ccc(C)cc4)C3)sc2c1 (stereo not given)	109	113
CCN(c1ccccc1)S(=O)(=O)c1ccc2[nH]cc(C(=O)NCc3ccc(C)cc3)c(=O)c2c1	98	91
O=S(=O)(NCCc1csc2nc(-c3ccc(Cl)cc3)nn12)c1cccs1	108	115
Cc1cc(Nc2ccccc2O)nc(C)n1	106	98
COc1ccc(CNC(=O)CCC2N=C3c4ccccc4N=C(SCc4ccccc4F)N3C2=O)cc1 (stereo not given)	101	108
CCCOc1ccc(CNC(=O)Cn2c(=O)oc3ccccc32)cc1	111	114
CCN1CCN(c2ccc(NS(=O)(=O)c3c(C)nc4sccn4c3=O)cc2Cl)CC1	109	112
COc1ccc(NC(=O)C2=C(C)Nc3nc(SCc4ccccc4C)nn3C2c2ccc(Br)cc2)cc1 (stereo not given)	105	113
CC(=O)Nc1ccc(NC(=O)C2CCN(S(=O)(=O)c3ccc4c(c3)CCCC(=O)N4)CC2)cc1	113	108
CC(C(=O)Nc1ccccc1)n1nnc2sc3c(c2c1=O)CCCC3 (stereo not given)	109	117
Cn1nnnc1SCCNCc1ccccc1Cl	103	106
O=C(CCCn1c2ccccc2c(=O)c2ccccc21)Nc1ccc(F)cc1Cl	108	112
COc1ccc(N2CCN(C(=O)COc3ccccc3C#N)CC2)cc1	108	114
Cc1ccc(CNC(=O)c2ccc3c(c2)N(Cc2cccc(Cl)c2)C(=O)CS3)cc1	104	106
O=C(Nc1ccc(F)cc1F)c1cccc2c1C(=O)N(C1CCCCC1)C2	112	112
CCOc1ccc(CC(=O)NCc2ccc3c(c2)CCN3C(=O)c2ccc(F)cc2)cc1OCC	112	119
CC(=O)N1CCCc2cc(S(=O)(=O)N(C)CC(=O)Nc3cccc(C)c3C)ccc21	101	108
Cc1ccc(C2c3cccn3CCN2S(=O)(=O)c2ccc([N+](=O)[O-])cc2)cc1 (stereo not given)	102	104

Sorted by number of heavy atoms (lowest first): six of the compounds above
SMILES	PV pol inh	PV pol inh intensity
Cc1cc(Nc2ccccc2O)nc(C)n1	106	98
COCCNc1nc2c(c(=O)n(C)c(=O)n2C)n1Cc1c(F)cccc1Cl	111	115
Cc1nn2c(C)c(C(=O)NCc3cccc(Br)c3)cnc2c1-c1ccccc1	104	113
CCN1CCN(c2ccc(NS(=O)(=O)c3c(C)nc4sccn4c3=O)cc2Cl)CC1	109	112
Cc1ccc(NC(=O)CCc2c(C)nc3c(-c4ccccc4)c(C)nn3c2C)c(C)c1	112	113
Cc1cc(C)n(-c2nc3ccccc3nc2N2CCN(c3cccc(C(F)(F)F)c3)CC2)n1	107	112

Continuation.
SMILES	PV pol inh	PV pol inh intensity
CCCC1=Nc2cc(C(=O)NCc3ccc(OC)cc3)ccc2Sc2ccc(C)cc21	108	108
CC(=O)c1ccc(C(=O)N(Cc2cccnc2)c2nc3c(C)c(C)ccc3s2)cc1	112	108
Cc1ccc(NC(=O)Cn2c(=O)n(Cc3ccc4c(c3)OCO4)c(=O)c3ccc(C(=O)NC4CCCCC4)cc32)cc1	105	108
CCOC(=O)c1ccc(NC(=O)CSc2c3c(nc4cc(Cl)ccc24)CCCC3)cc1	100	102
CC1=C(C(=O)Nc2ccccc2C)C(c2sccc2C)n2ncnc2N1 (stereo not given)	104	106
O=C(c1ccco1)N(Cc1cccnc1)c1nc2c(F)cccc2s1	112	114
CCOC(=O)Cc1cc(C(=O)Nc2ccc(Br)cc2)sc1-c1ccc(C)cc1	107	106
Cc1ccc(NC(=O)c2nc(S(C)(=O)=O)ncc2N(Cc2ccco2)Cc2ccco2)cc1	107	110
COc1ccc(CCNC(=O)c2ccc3nc(CCc4ccccc4)oc3c2)cc1OC	99	106
COc1cccc(-c2nc(Cn3c(=O)cc(C)c4c(C)nn(-c5ccccc5)c43)c(C)o2)c1OC	107	109
COc1cc(OC)cc(-c2nnc(SCC(=O)c3ccc([N+](=O)[O-])cc3)o2)c1	108	111
COc1cccc(C(=O)c2cn(CC(=O)NCc3ccccc3)c3nc(C)ccc3c2=O)c1	110	110
Cc1ccc(C)c(Cn2c3ccccc3c3cnn(CC(=O)NCCCc4ccccc4)c(=O)c32)c1	103	102
O=C(Nc1ccc(C(F)(F)F)cc1)C1CCCN(c2cnccn2)C1 (stereo not given)	111	112
Cc1ccc(OCC(=O)Nc2ccc3c(c2)nc(CCNC(=O)c2ccco2)n3C)cc1	108	91
O=C(c1cccs1)c1cn(CCOc2ccc(F)cc2)c2ccccc12	105	103
CCC(C)n1c(=O)c2sccc2n2c(CCCC(=O)N3CCN(c4ccccc4)CC3)nnc12 (stereo not given)	116	112
CCOc1ccc(NC(=O)C(CC(C)C)N2Cc3ccccc3C2=O)cc1 (stereo not given)	111	107
CCOc1ccc(-c2ccc(NS(=O)(=O)c3cc(C)c(C)cc3C)cc2)nn1	109	104
Cc1cc(C(=O)NCc2ccc(Cl)cc2)c2c(C)nn(-c3ccccc3)c2n1	102	101
CCn1c(=O)c2cc(C(=O)N3CCN(c4cccc(OC)c4)CC3)sc2c2ccccc21	101	103
CCOc1ccccc1C(=O)N(Cc1ccc(N(C)C)cc1)Cc1ccco1	102	104
O=C(c1ccc(F)cc1)N1c2nc(-c3ccco3)nn2C2(CCCCC2)[C@@H]2CCCC[C@@H]21	103	102

From PubChem
